# KCNQ2 block – KCNQ2 channel blockers in CHO-K1 cells – cell-based, FluxOR thallium flux, B-score, primary screen (AID 2156). O88943. 20 min; stronger effect = lower value; only compounds with negative scores are shown here; some inactives read as strong as hits. B-score at 10 µM. 310,000 tested, 1.1% active;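 active means fluorescence ratio B-score at most minus 3 library SDs, with starting brightness B-score within 2 library SDs, cut at about -5.5 in these data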
# Target sequence (O88943 whole entry, looked up): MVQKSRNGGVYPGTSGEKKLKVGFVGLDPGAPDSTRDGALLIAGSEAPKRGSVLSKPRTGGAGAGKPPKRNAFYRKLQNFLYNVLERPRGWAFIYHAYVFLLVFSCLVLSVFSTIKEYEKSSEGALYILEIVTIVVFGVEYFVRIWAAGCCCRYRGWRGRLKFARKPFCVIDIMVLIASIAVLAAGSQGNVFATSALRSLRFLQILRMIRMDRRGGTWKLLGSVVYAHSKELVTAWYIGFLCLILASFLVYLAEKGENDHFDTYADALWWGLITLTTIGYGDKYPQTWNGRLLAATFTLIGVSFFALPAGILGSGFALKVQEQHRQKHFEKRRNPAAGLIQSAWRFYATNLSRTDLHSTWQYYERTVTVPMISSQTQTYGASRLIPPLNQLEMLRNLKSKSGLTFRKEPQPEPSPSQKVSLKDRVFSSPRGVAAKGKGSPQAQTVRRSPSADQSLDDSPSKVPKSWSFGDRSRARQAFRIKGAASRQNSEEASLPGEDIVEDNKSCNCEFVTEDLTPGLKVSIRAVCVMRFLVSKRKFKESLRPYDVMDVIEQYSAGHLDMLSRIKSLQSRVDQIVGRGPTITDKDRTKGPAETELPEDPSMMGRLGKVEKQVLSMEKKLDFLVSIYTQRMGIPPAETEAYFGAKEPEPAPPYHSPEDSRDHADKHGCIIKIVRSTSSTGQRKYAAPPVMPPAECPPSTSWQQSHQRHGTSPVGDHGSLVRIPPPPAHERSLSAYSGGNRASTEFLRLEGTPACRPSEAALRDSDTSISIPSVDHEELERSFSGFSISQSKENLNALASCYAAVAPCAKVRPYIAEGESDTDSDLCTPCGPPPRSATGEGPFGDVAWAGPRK
# KCNQ2 block baseline – further read-out of KCNQ2 block, marked with its call; B-score; measured here: initial fluorescence intensity artifact check;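 brightness before thallium and not channel activity; 0 = typical well and far values either way flag optical interference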
# * = called active by the depositor; i = inactive; & = joins results of further samples. Not all compounds are listed (hit frequency here may not be typical).
smiles	KCNQ2 block	KCNQ2 block baseline
CCOC(=O)N1CCN(S(=O)(=O)N2CCCC(C(=O)NC(C)c3ccccc3)C2)CC1 (stereo not drawn)	i	-0.03
O=[N+]([O-])c1cnccc1Nc1ccc(Cl)cc1	i	0.96
Cc1ccc(NC(=S)Nc2ccc3[nH]c(=O)[nH]c3c2)cc1	i	-0.53
CC(c1ccccc1)C1CC(=O)N(Cc2ccccc2)C1=O (stereo not drawn)	i	0.31
NNC(=O)/C=C/c1ccc(Cl)cc1Cl	i	0.89
Cc1ccc2c(c1)c1c(n2CC(O)CN2CCCCCC2)CCCC1 (stereo not drawn)	i	-0.2
CC(C)c1ccc(NC(=O)Nc2cc3sccc3n2C)cc1	i	-0.49
O=[N+]([O-])c1cccc(/C=N/N2CCN(Cc3ccc(Cl)cc3)CC2)c1	i	-2.8
CSc1ccc(S(=O)(=O)NCC(=O)OCC(=O)N2CCCCC2C)cc1[N+](=O)[O-] (stereo not drawn)	i	0.19
COc1ccc(C2(O)C(=O)Nc3ccccc32)cc1 (stereo not drawn)	i	-0.19
CN1CCN(c2ccc([N+](=O)[O-])cc2C(=O)c2ccc(Cl)cc2)CC1	i	1.3
CN(C)S(=O)(=O)c1cc(NC(=O)CSc2nn(-c3ccc(Cl)cc3)c(=S)s2)ccc1Cl	i	-0.17
Nc1ccc2nc(-c3cccnc3)[nH]c2c1	i	2.2
COc1ccc(N(C)S(=O)(=O)c2cccc(C(=O)Nc3nc4ccccc4[nH]3)c2)cc1	i	0.01
CCn1c(SCC(=O)NCCc2ccc(F)cc2)nnc1-c1cccs1	i	-0.39

# Entries of single compounds, looked up by structure. Values in the order: KCNQ2 block	KCNQ2 block baseline
# `CC(C)c1ccc(NC(=O)Nc2cc3sccc3n2C)cc1` across the screens: i	-0.49
# `Cc1ccc2c(c1)c1c(n2CC(O)CN2CCCCCC2)CCCC1` (stereo not drawn) across the screens: i	-0.2
# `CCOC(=O)N1CCN(S(=O)(=O)N2CCCC(C(=O)NC(C)c3ccccc3)C2)CC1` (stereo not drawn) across the screens: i	-0.03

# Other compounds follow:
smiles	KCNQ2 block	KCNQ2 block baseline
O=C(NCc1ccco1)c1cnn2c(C(F)(F)F)cc(-c3ccco3)nc12	i	1.2
O=S(=O)(c1ccc2c(c1)oc1ccccc12)N1CCOCC1	i	0.23
CC(C)c1cccc(C(C)C)c1NC(=O)CNCC(O)c1ccccc1 (stereo not drawn)	i	0.74
CCOC(=O)CSc1nc2cc3c(cc2cc1C#N)OCCO3	i	0.3
CC(Oc1ccc2ccc(=O)oc2c1)C(=O)NCCCn1ccnc1 (stereo not drawn)	i	0.03
COc1ccc(Cc2nc(C(=O)Nc3ccc(Cl)cc3)cs2)cc1	-5.8*	0.65*
CCC(=O)NC(=S)Nc1cccc(NC(=O)c2ccccc2C)c1	i	0.16
O=C(OC(C(=O)NCc1ccccc1)c1ccccc1F)c1ccco1 (stereo not drawn)	i	0.74
Cc1ccc(S(=O)(=O)N(CC(=O)Nc2ccccc2C(=O)O)c2ccc(Cl)cc2)cc1	i	-0.03
C=CCn1c(SCC(=O)Nc2cc(C)nn2-c2ccccc2)nnc1C1CCCCC1	i	0.31
CC1CCCCC12NC(=O)N(CC(=O)Nc1ccc(N3CCOCC3)cc1)C2=O (stereo not drawn)	i	0.34
CC(C)(C)c1ccc(Cn2cnc(-c3ccc([N+](=O)[O-])cc3)c2)cc1	i	-1.2
Cc1ccc(NC(=O)CC(N)=S)cc1	i	1.6
Cc1ccc(Cl)c(OCC(=O)NCC(c2cccs2)N2CCOCC2)c1 (stereo not drawn)	i	-0.19
COc1ccc(N2CCN(Cc3nc(N)nc(N4CCCc5ccccc54)n3)CC2)cc1	i	0.42

# The list goes on; the last 7 above are carried over.
smiles	KCNQ2 block	KCNQ2 block baseline
Cc1ccc(S(=O)(=O)N(CC(=O)Nc2ccccc2C(=O)O)c2ccc(Cl)cc2)cc1	i	-0.03
C=CCn1c(SCC(=O)Nc2cc(C)nn2-c2ccccc2)nnc1C1CCCCC1	i	0.31
CC1CCCCC12NC(=O)N(CC(=O)Nc1ccc(N3CCOCC3)cc1)C2=O (stereo not drawn)	i	0.34
CC(C)(C)c1ccc(Cn2cnc(-c3ccc([N+](=O)[O-])cc3)c2)cc1	i	-1.2
Cc1ccc(NC(=O)CC(N)=S)cc1	i	1.6
Cc1ccc(Cl)c(OCC(=O)NCC(c2cccs2)N2CCOCC2)c1 (stereo not drawn)	i	-0.19
COc1ccc(N2CCN(Cc3nc(N)nc(N4CCCc5ccccc54)n3)CC2)cc1	i	0.42
CCn1c(C)nc([N+](=O)[O-])c1C(=O)O	i	1.8
Cn1c(=O)[nH]c(=O)c2c1nc(SCC(=O)O)n2Cc1ccccc1	i	-0.57
O=C(Nc1cc(Cl)ccc1Oc1ccccc1)c1ccc(F)cc1	i	3.3
COCCc1ccc(OCC(O)CNC(C)C)cc1 (stereo not drawn)	i	-1.7
COc1ccc(N2CCN(C(=O)CSc3nnc4ncccn34)CC2)cc1	i	0.7
COc1cc(OC)cc(C(=O)N[C@H](C(=O)NCc2cccs2)C(C)C)c1	i	-0.42
CCOC(=O)c1c(-c2ccccc2)csc1NC(=O)/C(C#N)=C/c1ccc(O)c(OC)c1	i	3.2
Cc1ccc(Cn2ccc(NC(=O)c3cc(-c4ccccc4)on3)n2)cc1	i	0.08
COc1ccc(CCNC(=O)c2ccc3c(c2)S(=O)(=O)N=C2CCCCCN23)cc1	i	1.4
CN1/C(=C/C(=S)NC(=O)C2(C)CC2(Cl)Cl)C(C)(C)c2ccccc21 (stereo not drawn)	i	-0.96
Cc1ccc2[nH]c(=O)c(CN(CCN3CCOCC3)C(=O)Nc3ccc(F)cc3)cc2c1	i	-2.1
Cc1ccc(S(=O)(=O)N(C)c2ccc(OCC(=O)NCc3ccco3)cc2)cc1	i	-0.46
COc1ccc(NC(=O)c2cccc(OC(=S)N3CCOCC3)c2)cc1	i	3
Cc1ccc(S(=O)(=O)N2CCC(=O)N(C(COCc3cccc(Cl)c3)Cc3ccccc3)CC2)cc1 (stereo not drawn)	i	-2.4
Cc1cc[n+](-c2[nH]c(=O)sc2/C=N/N=C(\[O-])CCn2c3ccccc3c3ccccc32)cc1	i	0.22
Cc1nc(Cl)c(C(=O)NCc2ccccc2)c(C)c1[N+](=O)[O-]	i	0.49
N#Cc1ccc(COc2cccc3cccnc23)cc1	i	-0.36
NC(=O)CSc1nnc(Cn2c(=O)sc3ccccc32)n1-c1cccc(Cl)c1	i	1.6
COc1ccc(-c2nn(CC(=O)NCCc3ccccc3)c(=S)n2C)cc1	i	-0.72
COC(=O)C(Cc1ccccc1)NC(=O)c1cc(=O)[nH]c2ccccc12 (stereo not drawn)	i	-1.7
O=c1c2cnn(-c3ccccc3)c2ncn1Cc1ccccc1F	i	1.3
COc1ccc(-n2c(=S)[nH]c3cc(C(=O)NCCCN4CCCC4=O)ccc3c2=O)c(OC)c1	i	0.71
CCC(=O)c1ccc(OCC(=O)OCC(=O)c2cc(C)n(CC3CCCO3)c2C)cc1 (stereo not drawn)	i	0.69
Cn1c(NC2CCCCC2)c(N=O)c(=O)n(C)c1=O	i	-0.44
FCCCOc1ccc(/C=N/OCc2c(Cl)cccc2Cl)cc1	i	-0.04
CC(C)(C)OC(=O)n1cc(C(=O)c2ccccc2O)cn1	i	-0.77
Cc1c(Cl)cccc1NC(=S)NCC1COc2ccccc2O1 (stereo not drawn)	i	1.1
COC(=O)c1c(NC(=O)c2ccco2)sc2c1CCC2	i	0.49
Cc1ccc(N2CCN(C(=O)CCc3nc4ccccc4[nH]3)CC2)c(C)c1	i	-0.89
COC(=O)c1ccccc1NC(=S)N1CCN(C2CCCCC2)CC1	i	-0.27
CCC(C)(C)NC(=O)C(c1ccc(OC)cc1)N(CC1CCCO1)C(=O)CCC(=O)Nc1cc(C)on1 (stereo not drawn)	i	0.16
Cc1ccccc1Nc1nc(N)nc(CSc2nnnn2C)n1	i	0.64
Cc1ccccc1CSCC(=O)N1CCN(c2ccccc2)CC1	i	-3.4
Cc1cc(Cl)ccc1OCC(=O)N1CCCN(C(=O)COc2ccc(Cl)cc2C)CC1	i	1.6
COc1ccc(-c2c(C)nc(N)nc2-c2ccc(OC)cc2O)cc1	i	0.77
Cc1cc(Cl)ccc1OCC(O)CN1C(C)CCCC1C (stereo not drawn)	i	0.43
COc1ccc(C(CCN2CCN(c3ccccc3)CC2)c2c(O)cc(OC)cc2OC)cc1 (stereo not drawn)	i	2.3
Cc1cc(C)n(C(=O)CCCn2nc(C)c([N+](=O)[O-])c2C)n1	i	-0.65
CCCCCCc1cc2cc(-c3nnc(-c4cc(OC)c(OC)c(OC)c4)o3)c(=O)oc2cc1O	i	20
CCc1ccc2oc(C(=O)Nc3ccc(S(N)(=O)=O)cc3)c(C)c2c1	i	2.1
COc1ccc(C2Nc3ccccc3C(=O)N2Cc2ccco2)cc1CN1C(=O)c2ccccc2C1=O (stereo not drawn)	i	1.1&1.9
COc1cc(/C=N/Nc2nc(Nc3ccccc3)nc(-n3nc(C)cc3C)n2)cc(OC)c1OC	i	-0.02
CCCNC(=O)c1cn(CC)c2cc(N3CCN(C(=O)c4ccco4)CC3)c(F)cc2c1=O	i	-0.6
COc1cc([N+](=O)[O-])ccc1-c1ccc(/C=N\n2cnnc2)o1	i	2.3
CCOc1ccc(C(=O)NC2CC(=O)N(c3ccc4c(c3)OCCO4)C2)cc1 (stereo not drawn)	i	0.62
CCOC(=O)C(=CNc1cc(C(F)(F)F)ccc1N1CCOCC1)C(=O)OCC	i	-0.06
CC(=O)N1N=C(c2ccc(Cl)cc2)OC12CCCC2	i	2
O=C(NCCN1CCOCC1)C(=O)NCC1OCCN1S(=O)(=O)c1ccc(F)cc1 (stereo not drawn)	i	-0.26
Cc1ccc2c(c1)c1c(n2CC(O)Cn2c(C)nc3ccccc32)CCCC1 (stereo not drawn)	i	0.52
Cc1ccc(-c2cc(C(F)F)n3ncc(C(=O)N4CCc5ccccc5C4)c3n2)cc1	i	1
CCN(CC)c1ccc(/C=C2\C(=N)N3N=C(CC(=O)N4CCOCC4)SC3=NC2=O)cc1	i	5
OC(COc1ccc2c(c1)CCC2)CN1CCN(c2cccc(Cl)c2)CC1 (stereo not drawn)	i	1.9
COC(=O)c1cc(NC(=O)c2cc(-c3ccccc3Cl)oc2C(F)(F)F)ccc1N1CCOCC1	i	-1.3
CCCSc1cc(N2CCCC2)nc(-c2ccccc2)n1	i	1.1
COc1ccc(/C=C/c2nc3ccccc3n2Cc2ccccc2OC)cc1	i	1.3
CCCCN1C(=O)CN(CCc2ccccc2)C(=O)C1c1ccc(OC)cc1 (stereo not drawn)	i	-0.67
COc1ccc(OC)c(NC(=O)NNC(=O)CCCOc2ccc(Cl)cc2C)c1	i	0.03
CC(=O)OCC(=O)[C@@]12OC(C)(C)O[C@@H]1C[C@H]1[C@@H]3C[C@H](F)C4=CC(=O)C=C[C@]4(C)[C@@]3(F)[C@@H](O)C[C@@]12C	i	0.08
COc1ccc(C2CC(c3ccccc3OC(=O)/C=C/c3ccccc3)=NN2C(C)=O)cc1 (stereo not drawn)	i	-0.18
O=C(O)c1ccc(-n2nnnc2SCc2ccccc2F)cc1	i	0.72

# Next section.
smiles	KCNQ2 block	KCNQ2 block baseline
Nc1nnnn1CC(=O)N/N=C/c1cc([N+](=O)[O-])ccc1O	i	0.36
O=C(Nc1ccc(Cl)c(Cl)c1)N(CCCN1CCOCC1)Cc1cccs1	i	-0.68
O=C(NCc1ccc(F)cc1)N1CCc2ccccc2C1	i	-2.8
CC1(C)CC2CC(C)(CN2C(=O)COC(=O)c2n[nH]c(=O)c3ccccc23)C1 (stereo not drawn)	i	0.56
Cc1ccccc1Nc1cccc2nonc12	i	0.49
CC(=O)N/N=C/c1ccc(OCCOc2ccc(Br)cc2)cc1	i	0.67
CC(C)C[C@H]1CN=C(Nc2ccccc2)N1CC1CCC(C)CC1 (stereo partly drawn)	i	0.81
Cc1nc2ccccc2nc1SCC(=O)c1ccccc1	i	1
O=C(Nc1ccccc1)c1cc(N2CCOCC2)nc2ccccc12	i	1.7
Cc1cc(Cl)ccc1OC(C)C(=O)NCCCn1ccnc1 (stereo not drawn)	i	3.3
CCOC(=O)c1[nH]c2ccccc2c1NC(=O)CC(C)(C)C	i	0.09
COc1ccc(C(=O)OCC(=O)NCc2ccco2)cc1OC	i	0.65
OCCCNC(c1ccccc1)c1ccc(O)cc1 (stereo not drawn)	i	1.7
COc1cccc(NC(=O)CSc2nccn(-c3ccc4c(c3)OCCO4)c2=O)c1	i	0.78
CN(Cc1cc(=O)n2ccsc2n1)Cc1nc2ccccc2c(=O)[nH]1	i	-2.9
C/C(CC(=O)Nc1ccc2ccccc2c1)=N\NC(=O)c1cnccn1	i	0.84
Cn1cccc1C(=O)C(=O)Nc1ccccc1C(F)(F)F	i	3
CN1CCN(c2ncnc3c2c(-c2ccccc2)cn3-c2ccc(F)cc2)CC1	i	-0.28
CCOc1ccc(CCNC(=O)COC(=O)CCC(=O)c2cccs2)cc1OCC	i	-3
CCC(=O)N1CCc2cc(S(=O)(=O)N3CCN(c4cc(C)ccc4C)CC3)ccc21	i	0.73
COc1ccc(/C(=C\Nc2ccc(C)c(C)c2)C(C)=O)cc1OC	i	1.4
CCCCOc1ccc(NC(=S)Nc2cc(C)nc(SCCCC)n2)cc1	i	0.06
Cc1cccc(NC(=S)N(Cc2ccco2)C(C)c2cccs2)c1 (stereo not drawn)	i	0.63
NC(=O)CC(NC(=O)Cc1ccc(Br)cc1)c1ccc(NCCN2CCCC2)c([N+](=O)[O-])c1 (stereo not drawn)	i	0.5

# Screens deposited in PubChem by Johns Hopkins Ion Channel Center.
